# Biofilm kill mix – clotrimazole potentiators killing C. albicans biofilm, primary screen, 4-compound mixtures | inhibition, % at 7.6 µM | C. albicans biofilm persisters + clotrimazole, fluorescence viability; primary screen in compound mixtures of four per well | 120,000 tested, 0.02% active;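 active = inhibition above 30.3% in the primary screen of four-compound pools, then above 30% when the compound was retested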;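 note: compounds exposed to preformed 24 h biofilms for 48 h; the number belongs to the whole pool; some results filed as inactive read as strong as hits; inactives centre near 12; 0% = biofilm with clotrimazole alone and 100% = kill control; retested singly at about 60 µM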
#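 System: C. albicans CAF4-2 wild-type biofilms; Medium: RPMI/MOPS medium, pH 7.0; Reagent: Clotrimazole, 50 µg/mL; Times: biofilm formation 24 h, compound exposure 48 h, 37 °C; Detection: 2-h Alamar Blue fluorescence, 535/590 nm excitation/emission; Evaluation: percent inhibition of biofilm viability.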
# Active calls of the source: *; & = joins results of further samples. Only part of the results is shown (hit frequency here may not be typical).
SMILES,Biofilm kill mix
CCOc1cc(C2C(C#N)=C(N)Oc3n[nH]c(-c4ccncc4)c32)cc([N+](=O)[O-])c1O (stereo not given),-6
O=C(CCS(=O)(=O)c1ccccc1)Nc1nc2cc3c(cc2s1)OCO3,13
C=CCN(c1ccccc1OC)S(=O)(=O)c1cccc(C(=O)OCC(=O)c2c[nH]c3ccccc23)c1,19
O=C(O)CCCCn1c(SCc2ccccc2Cl)nc2ccsc2c1=O,4
Fc1ccc(NC(=S)NCc2cccs2)cc1,-1
COc1ccc(OCCNC(=O)Nc2cc(F)c(F)cc2Cl)cc1,11
COc1ccc2[nH]c(=O)c(-c3nnn(-c4ccccc4)n3)cc2c1,20
Cc1nn(C)c(C(=O)Sc2ccccc2)c1[N+](=O)[O-],14
COc1cc(NC(=O)CN2CCN(c3ccccc3O)CC2)c(C)cc1[N+](=O)[O-],7
O=C(Nc1ccc(S(=O)(=O)N2CCCC2)cc1)C1CC(=O)N(c2ccccc2)C1 (stereo not given),15
COC(=O)[C@H](Cc1ccccc1)NC(=O)N(C)Cc1ccccc1,25
OCc1cn(-c2ccccc2)nc1-c1cc2ccccc2o1,13
O=C(COC(=O)Cc1cccs1)Nc1ccccc1Cl,12
Cc1cc[n+](-c2[nH]c(=O)sc2/C=N/N=C(\[O-])c2ccccc2)cc1,21
COc1ccc(Nc2ccncc2[N+](=O)[O-])cc1,13
COCCNC(=O)COc1ccc(C)cc1C(=O)c1cc(C#N)c(=O)n(C2CC2)c1,8
Cc1ccc2nc(C)c3c(c2c1)N(c1ccc(F)cc1)CC3,16
O=C(NCCN1C(=O)S/C(=C\c2cccnc2)C1=O)c1ccc(S(=O)(=O)N2CCCC2)cc1,15
COc1ccc(OC)c(Cc2nnc(CCC(=O)NCc3nc4ccccc4s3)o2)c1,0
CC(=O)Oc1cc2oc(=O)cc(C)c2cc1Cl,17
CC(C)(C)c1ccc(OCC(=O)NN2Cc3ccccc3C2=N)cc1,10
CCC1Cc2c(nc(N)c3c(N)nc(N4CCOCC4)c(C#N)c23)O1 (stereo not given),12
O=[N+]([O-])c1ccc2nc(CCCc3nc4ccc([N+](=O)[O-])cc4[nH]3)[nH]c2c1,0
Cc1cc([N+](=O)[O-])nn1CC(=O)NCCc1c[nH]c2ccccc12,4
Cc1ccc(NC(=O)CNc2ccc(Cl)c(Cl)c2)cc1S(=O)(=O)N(C)C,6
SMILES,Biofilm kill mix
COc1cccc(N=CC2=C(O)CC(C)(C)CC2=O)c1,-3
Cc1[nH]nc(SCC(=O)N(C)c2ccccc2)c1[N+](=O)[O-],12
O=C(COc1ccc(C(=O)c2ccccc2)cc1)NC1CCCCC1,18
COc1cccc(C2NC(=S)NC(C)=C2C(=O)c2ccccc2)c1OC (stereo not given),14
O=c1cc(N2CCCCCC2)[nH]c(=O)n1-c1ccccc1Cl,18
Cc1cccc(N2CN(Cc3ccco3)CNC2=S)c1,9
COc1ccc(C(=O)NCCn2cc(SCC(N)=O)c3ccccc32)cc1,9
NNC(=O)c1cc(-c2ccc(N)cc2)nc2ccc(Br)cc12,2
C/C=C/c1ccc(OC)c(OC(C)=O)c1,16
NNC(=O)c1cc(-c2ccco2)[nH]n1,6
O=C(Cc1ccccc1)c1c[nH]c(C(=O)NCCCn2ccnc2)c1,22
N#Cc1ccccc1CSC1=NCCS1,20
CC(C)CC(NC(=O)C(NC(=O)OC(C)(C)C)C(C)C)C(=O)NC(CCC(=O)OCc1ccccc1)C(N)=O (stereo not given),12
CCc1ccccc1NC(=O)Cn1c(=O)n(-c2ccc(CC(=O)NCC3CCCO3)cc2)c(=O)c2ccccc21 (stereo not given),8
CC(C)c1ccc(NC(=O)c2ccc(Br)o2)cc1,6
Cc1ccc(C2=CSC3=NS(=O)(=O)CCN23)cc1,3
c1ccc(N2CCN(Cc3cn4ccccc4n3)CC2)cc1,8
CCc1ccc(C2CC(=O)N(c3cccc(F)c3)C3=C2C(=O)OC3)cc1 (stereo not given),22
O=C(CN1CCN(C(=S)NC2CCCC2)CC1)Nc1ccc(Oc2ccccc2)cc1,-4
Cc1cc(N/N=C/c2c[nH]c3ccccc23)c2ccccc2n1,17
Cc1ccc(OCCn2c3ccccc3n3nc(C)c(=O)nc23)cc1,15
CC(C)CCOC(=O)C(C)Sc1n[nH]c(=O)[nH]c1=O (stereo not given),26
Fc1ccc(CNCc2ccccc2C(F)(F)F)cc1,16
CC(c1ccco1)N(C(=O)c1ccccc1F)c1ccccn1 (stereo not given),12
Cc1ccc(SCC(=O)c2c(C)[nH]c3ccccc23)cc1,-4

# 19 entries already listed, sorted by length of the SMILES, ascending.
SMILES,Biofilm kill mix
N#Cc1ccccc1CSC1=NCCS1,20
NNC(=O)c1cc(-c2ccco2)[nH]n1,6
Fc1ccc(CNCc2ccccc2C(F)(F)F)cc1,16
Cc1cccc(N2CN(Cc3ccco3)CNC2=S)c1,9
CC(C)c1ccc(NC(=O)c2ccc(Br)o2)cc1,6
Cc1ccc(C2=CSC3=NS(=O)(=O)CCN23)cc1,3
COc1cccc(N=CC2=C(O)CC(C)(C)CC2=O)c1,-3
CC(c1ccco1)N(C(=O)c1ccccc1F)c1ccccn1 (stereo not given),12
Cc1ccc(SCC(=O)c2c(C)[nH]c3ccccc23)cc1,-4
CC(C)CCOC(=O)C(C)Sc1n[nH]c(=O)[nH]c1=O (stereo not given),26
NNC(=O)c1cc(-c2ccc(N)cc2)nc2ccc(Br)cc12,2
Cc1ccc(OCCn2c3ccccc3n3nc(C)c(=O)nc23)cc1,15
O=C(Cc1ccccc1)c1c[nH]c(C(=O)NCCCn2ccnc2)c1,22
COc1cccc(C2NC(=S)NC(C)=C2C(=O)c2ccccc2)c1OC (stereo not given),14
Cc1[nH]nc(SCC(=O)N(C)c2ccccc2)c1[N+](=O)[O-],12
CCc1ccc(C2CC(=O)N(c3cccc(F)c3)C3=C2C(=O)OC3)cc1 (stereo not given),22
O=C(CN1CCN(C(=S)NC2CCCC2)CC1)Nc1ccc(Oc2ccccc2)cc1,-4
CCc1ccccc1NC(=O)Cn1c(=O)n(-c2ccc(CC(=O)NCC3CCCO3)cc2)c(=O)c2ccccc21 (stereo not given),8
CC(C)CC(NC(=O)C(NC(=O)OC(C)(C)C)C(C)C)C(=O)NC(CCC(=O)OCc1ccccc1)C(N)=O (stereo not given),12

# (further entries)
SMILES,Biofilm kill mix
COc1cc2c(cc1OC)CN(C(=O)c1ccc(S(=O)(=O)N3CCCC3)cc1)CC2,14
CC(=O)Nc1ccc(C(=O)Nc2cccc(-c3cnc4ccccc4n3)c2)cc1,26
CCCCCOC(=O)C(C)Sc1n[nH]c(=O)[nH]c1=O (stereo not given),14
Oc1ccccc1N1CCN(c2nnnn2-c2ccccc2)CC1,12
CCN(CC)c1nc2c(c(=O)n(C)c(=O)n2C)n1CC(=O)c1ccccc1,2
CN(/N=C/c1cccnc1)C1=NS(=O)(=O)c2ccccc21,3
COc1ccc(/C=N/Nc2nnc(-c3ccccc3)c(=O)[nH]2)cc1,9
Cc1ccc(NC(=O)COC(=O)CCC(=O)c2cccs2)cc1,13
CCC(=O)Nc1nc2nc(-c3ccccc3)cc(=O)n2[nH]1,24
O=C(CN1CCN(S(=O)(=O)c2ccc(Br)cc2)CC1)Nc1ccccc1C(=O)c1ccccc1,9
O=C(N/N=C1\CCc2ccccc21)c1ccccc1Cl,9
CCOc1ccccc1NC(=O)C1CCC(CNc2c(N3CCCCC3)c(=O)c2=O)CC1 (stereo not given),6
O=C(OC(C(=O)Nc1ccc(Cl)cc1C(F)(F)F)c1ccccc1)c1c(Cl)cccc1Cl (stereo not given),18
COc1cc(C(=O)NC(C)Cc2cccs2)cc(OC)c1OC (stereo not given),-13
CSCCC(NS(=O)(=O)c1ccc2c(c1)oc(=O)n2C)C(=O)NC1CCN(Cc2ccccc2)CC1 (stereo not given),9
N#Cc1cnc2c(-c3ccccc3)c(-c3ccccc3)nn2c1N,11
CC(C)(C)[C@@H]1C=C(C(=O)N2CCN(Cc3ccccc3)CC2)O[C@H](OCc2ccc(CO)cc2)C1,10
COc1ccc(-n2c(SCc3ccccn3)nc3c(c2=O)SCC3)cc1OC,24
CC(C)Cc1ccc(/C=C/C(=O)NC2CC2)cc1,7
O=C(N/N=C/c1cn(Cc2ccccc2)c2ccccc12)c1cccnc1,19
CC1(C)Cc2c(sc3nc(C4CCCCC4)n(N)c(=O)c23)CO1,14
Cc1ccc(-n2[nH]c3c4c(ccc3c2=O)C(=O)c2ccccc2C4=O)cc1,10
COc1ccc(S(=O)(=O)N(C)C)cc1NC(=O)CSc1nncs1,8
CNS(=O)(=O)c1cc(N(C)S(=O)(=O)c2ccc(C)cc2)c(C)cc1C,14
Cc1cccc(NC(=O)c2cc(Cl)sc2Cl)c1C,2
SMILES,Biofilm kill mix
Cc1cc(C)n(-c2ccc(C(=O)OCc3ccccc3)cc2)n1,8
COc1ccc(-c2[nH]ncc2CN2CCC(OCc3cccnc3)CC2)c(F)c1,24
Cc1nc(NS(=O)(=O)c2ccccc2)sc1NC(=O)Nc1ccccc1,13
CCN(CC)c1ccc(/C=C/C(=O)c2ccc(Br)cc2)cc1,13
Cc1ccc(S(=O)(=O)N2CCN(C(=O)CCN3C(=O)c4ccccc4C3=O)CC2)cc1C,16
Nc1nonc1C(=O)N/N=C/c1cccc([N+](=O)[O-])c1,16
COc1cccc(CN2CCN(Cc3ccc(C#CC(C)(C)O)s3)CC2CCO)c1 (stereo not given),20
Cc1ccc(C)c(Cn2cnc3c(oc4ccccc43)c2=O)c1,1
O=C(CSc1cccc2cccnc12)N/N=C/c1cccc(O)c1,14
COc1cc(CNc2ncn[nH]2)ccc1OCc1ccccc1C,19
O=C(CSc1ccc(Br)cc1)NCC1CCCO1 (stereo not given),15
CCN(CC)C(=O)C(C)N(C#N)c1nc(C)cc(C)n1 (stereo not given),16
CCOc1ccc(/C=C(/NC(=O)c2ccccc2)C(=O)NCCC(=O)O)cc1,20
O=C(COc1ccccc1)NC1CCS(=O)(=O)C1 (stereo not given),0
CCOC(=O)c1[nH]c2ccccc2c1NC(=S)Nc1cccc(C)c1C,8
Cc1ccc2cc(COC(=O)c3cccc([N+](=O)[O-])c3)c(=O)[nH]c2c1,26
COc1ccc(CNC(=O)C/C(C)=N/NC(=O)COc2cccc(C)c2)cc1,0
COc1ccc(-n2c(-c3ccc(Br)cc3)c[n+]3c2SC(C)C3)cc1 (stereo not given),24
CCOC(=O)c1cc(-c2ccccc2)n(CCC(=O)NC(C)CC)c1C (stereo not given),7
O=C(NNC(=S)NCC1CCCO1)c1ccc(S(=O)(=O)N2CCOCC2)cc1 (stereo not given),18
COc1cc(OC)nc(NC(=O)COC(=O)c2cccc(Cl)c2)n1,12
Cc1coc2c1C(=O)C(=O)c1c-2ccc2c(C)cccc12,15
Cc1cc(C(=O)OCC(=O)Nc2ccccc2[N+](=O)[O-])c2ccccc2n1,9
COC(=O)CCCC1=CC2=CC(=O)C(C)(OC(=O)c3cccs3)C(=O)C2=CN1CCc1c[nH]c2ccccc12 (stereo not given),-2
Cc1ccc(Nc2nnc(SC/C(O)=C(\C#N)c3nc4ccccc4[nH]3)s2)c(C)c1,-3
SMILES,Biofilm kill mix
COc1cc2c(cc1NC(=O)CSc1cccc[n+]1[O-])oc1ccccc12,18
O=C(NCCCN1CCCC1=O)C1CCCO1 (stereo not given),22
O=C(O)C1C2C=CC(C2)C1C(=O)NCc1cccs1 (stereo not given),9
CCN(CC)S(=O)(=O)c1ccc(N2CCOCC2)c(NC(=O)c2c3c(nc4ccccc24)CCC3)c1,15
Cc1cc(C)c(C)c(S(=O)(=O)Nc2ccc(C(N)=O)cc2)c1C,3
O=S(=O)(NCc1c(Cl)cccc1Oc1ccccc1)c1ccc(F)cc1,-3
CCC(C)(C)NC(=O)C(c1ccco1)N(C(=O)CNC(=O)c1cccs1)c1cccnc1 (stereo not given),14
CN(C)c1ccc2c3c(cccc13)C(=O)N(c1ccccc1)C2=O,8
O=C(CCCN1C(=O)/C(=C\c2ccccc2)SC1=S)Nc1ccc(O)cc1,20
COC(=O)CNC(c1ccccc1)c1cc(C)ccc1NC(=O)c1cccc(Cl)c1 (stereo not given),13
O=C(NCc1nnc(SCc2ccc(F)cc2)n1-c1ccc(F)cc1)C12CC3CC(CC(C3)C1)C2,7
O=C(O)CCCNC(=O)C(c1ccccc1)c1ccccc1,15&7
O=C(/C=C/c1ccccc1)Oc1cccc(C(=S)N2CCOCC2)c1,14
O=C(NCc1ccco1)C1CC(c2ccc(F)cc2)=NO1 (stereo not given),17
CC(=O)Nc1ccc(S(=O)(=O)NC(C(=O)O)C(C)O)cc1 (stereo not given),10
COc1ccc(N(CC(=O)NCCSCc2ccco2)S(=O)(=O)c2ccc(C)cc2)cc1,5
CC(C)C(=O)OC1CCS(=O)(=O)c2sccc21 (stereo not given),7
Cc1cc(C)n(CCN(C)C(=O)CCc2nnc(-c3ccc4c(c3)OCO4)o2)n1,11
O=c1cc(CN2CCN(c3ccccc3F)CC2)c2cc(O)c(-c3ccccc3)cc2o1,18
CCc1ccc(C(=O)NC(C(=O)NCC2CCCO2)C(C)C)cc1 (stereo not given),6
CC(/C=N/NC(=O)c1cc(C(C)C)[nH]n1)=C\c1ccccc1,14
COCCNC(=O)C(=O)NNS(=O)(=O)c1ccc2ccccc2c1,30
O=C(COC(=O)c1cc([N+](=O)[O-])ccc1NCCO)c1ccccc1,10

# Screens: PubChem BioAssay, PCMD
